# From PubChem BioAssay
# RanGTP-Impb inh: inhibitors of RanGTP-importin-beta interaction, primary screen, biochemical, FRET, CFP-Ran, YFP-importin-beta, homogeneous; cell-free CFP-Ran/YFP-importin-beta FRET ratio; inhibition, % (concentration not given with the values); 300,000 tested, 1.1% active;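 active = most replicates above 15%; inconclusive = exactly half above 15%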;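 note: 0% = DMSO wells and 100% = Ran loaded with GDP instead of GTP; wells of about 40 µL received 100 nL stock; the first replicate is given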
# Ecoli rRNA inh: inhibits bacterial ribosomal RNA function over humanized ribosomes; AID 720706; 350,000 tested, 1.6% active; GFP signal change (wild-type ribosome), % (concentration not given with the values); E. coli WT GFP vs humanized-ribosome RFP mutants, fluorescence, 24 h; hits give low values; DMSO median 0, no signal -100;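 active = significant combined selectivity score with lowered wild-type GFP, culture density cut under 30%, mutant RFP and density less affected; inactive = any of these conditions unmet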; note: one replicate is shown; some compounds called inactive have numbers as strong as hits
# Calb FLC: C. albicans growth modulation with fluconazole | C. albicans CaCi-2 (fluconazole-resistant clinical isolate) + fluconazole, Alamar Blue growth, 48 h | growth inhibition, % (no concentration beside the values) | 300,000 tested, 0.57% active;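 active = most replicates above 75%; inconclusive = exactly half above 75%; inactive = most below 75%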;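 note: all wells also contain fluconazole at 8 µg/ml as a sub-toxic cotreatment; 0% = median of DMSO wells and 100% = median of geldanamycin control wells; wells of about 8 µL received 7.5 nL stock; the first replicate is given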
# Beta apoptosis: beta cell apoptosis inhibition; protection from apoptosis, % (test concentration not listed); 300,000 tested, 0.8% active; AID 435005; INS-1E cytokine-induced death, ATP luminescence, 48 h; percent of positive-control rescue, neutral wells zero;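 active = all replicates at 75% or more, or half of them and the mean; inconclusive = half reach 75% but not the mean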;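 note: 0% = cytokine-treated negative control wells and 100% = positive control rescue; higher means more ATP so stronger rescue from cytokine killing; wells of about 40 µL received 100 nL stock; the first replicate is given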
# Bfl-1 A1 inh: inhibitors of the anti-apoptotic protein A1, read as caspase activation; MEF A1-2A-BIM cells, Caspase-Glo 3/7 luminescence, 3 h; percent of clofoctol response, vehicle zero; caspase activation, % (concentration not given with the values); 330,000 tested, 0.066% active; AID 2462;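 active = over half of replicate activation scores above 10%, or exactly half above 10 with the replicate mean above 10; inconclusive = replicate mean below 10 yet half the replicates above 10; inactive = over half of replicates below 10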;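 note: wells of about 30 µL received 50 nL stock; many hits fall short of the cut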
# Vif TR-FRET: HIV-1 Vif–A3G interaction blockers – biochemical, TR-FRET, GST-Vif 1-94, biotin-A3G peptide, dose response retest, primary screen (AID 1117319) | TR-FRET GST-Vif / biotin-A3G peptide binding; higher % means a stronger effect; test concentration not given here; strong numbers were not always called active | inhibition, %, or IC50 in µM where a hit was titrated | 260,000 tested, 0.57% active;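 active = above the screen mean plus three standard deviations and confirmed in dose response; inconclusive = results disagree or hit not tested in dose response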;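 note: Vif residues 1-94 fused to GST binding biotinylated APOBEC3G peptide 110-148; 0% = full assay without inhibitor and 100% = GST in place of GST-Vif; retest series ran down from 100 µM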
# T cruzi inh: T. cruzi replication inhibition. T. cruzi beta-gal in NIH3T3, luminescence, 90 h. inhibition, % (no concentration beside the values). 300,000 tested, 1.4% active. AID 1885;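 active = mean inhibition across valid replicates above about 55%, limit read from the data; inconclusive = mean below that limit but half or more replicates reach it; inactive = mean below it, under half of replicates reach it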;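 note: signal also drops with host cell toxicity which is not excluded here; 0% = plate median of DMSO wells and 100% = zero luminescence signal; higher percent means less beta-gal luminescence so fewer parasites; stock transfer was 50 nL into about 50 µL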
# AF4-AF9 inh: blocks AF4 peptide binding to human AF9; 350,000 tested, 0.47% active; P42568; AlphaScreen, biotin-AF4 peptide binding to FLAG-AF9; inhibition, % at 10 µM;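 active = every replicate reaching a set inhibition limit, whatever the replicate mean, cut at about 25% in these data; inconclusive = mean inhibition reaches that limit but some replicates miss it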;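 note: 0% = plate neutral control median and 100% = total signal loss; the record names both 10 and 1 µM as test concentration; the first replicate is given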
# Target sequence (P42568 whole entry, looked up): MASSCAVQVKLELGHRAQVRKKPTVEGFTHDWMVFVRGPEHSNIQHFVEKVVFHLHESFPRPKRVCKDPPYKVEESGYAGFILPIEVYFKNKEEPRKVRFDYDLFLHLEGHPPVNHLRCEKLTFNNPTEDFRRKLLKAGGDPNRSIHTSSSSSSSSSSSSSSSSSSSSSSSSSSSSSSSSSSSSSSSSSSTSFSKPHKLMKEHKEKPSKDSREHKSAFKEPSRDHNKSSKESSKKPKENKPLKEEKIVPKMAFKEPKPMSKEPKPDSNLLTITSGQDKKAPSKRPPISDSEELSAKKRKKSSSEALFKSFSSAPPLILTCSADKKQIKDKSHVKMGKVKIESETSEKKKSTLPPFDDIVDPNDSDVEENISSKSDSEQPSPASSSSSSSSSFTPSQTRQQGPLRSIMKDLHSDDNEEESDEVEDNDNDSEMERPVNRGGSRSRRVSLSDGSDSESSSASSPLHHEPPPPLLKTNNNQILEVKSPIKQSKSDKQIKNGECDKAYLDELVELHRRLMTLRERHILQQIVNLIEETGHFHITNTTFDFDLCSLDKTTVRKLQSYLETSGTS
# Ecoli rRNA inh OD600: further read-out of Ecoli rRNA inh, marked with its call; OD600 change, %; measured here: OD600 growth;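 optical density of the mix in the first replicate; 0 = DMSO median and -100 = no signal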
# Ecoli rRNA inh RFP: second read-out of Ecoli rRNA inh, no call of its own (marks repeat the call); RFP signal change, %; measured here: RFP humanized mutant strains;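 first replicate; 0 = DMSO median and -100 = no signal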
# * = called active by the depositor; ? = inconclusive; nt = not tested or not shown. The list is partial; count on the stated rates, not on these rows.
SMILES,RanGTP-Impb inh,Ecoli rRNA inh,Ecoli rRNA inh OD600,Ecoli rRNA inh RFP,Calb FLC,Beta apoptosis,Bfl-1 A1 inh,Vif TR-FRET,T cruzi inh,AF4-AF9 inh
O=C(COC(=O)c1c[nH]c(=O)[nH]c1=O)Nc1cccc([N+](=O)[O-])c1,nt,21,15,9.4,nt,-1,0.6,-7%,nt,-2.7
O=c1c2cccnc2n(-c2ccccc2)n1Cc1ccc(Cl)cc1,-2.5,20,22,-2.8,-6,3,0.0,1%,7,-1.9
COc1cccc(/C=N/NC(=O)C(C)Sc2ccccc2)c1 (stereo not given),2.9,-11,-12,-0.1,-22,7,-0.4,nt,3,4.3
CCc1ccc(NC(=O)NCc2cccnc2)cc1,6.2,-4,1,-0.4,2,3,1.3,5%,0,-0.1
COC(=O)[C@]1(C)N[C@H](CN(C)C(=O)Nc2ccc(C)cc2)[C@@H]2C(=O)N(C)C(=O)[C@@H]21,nt,19,0,2.9,nt,-3,0.4,-1%,nt,2.7
O=C(CSc1ccc(-c2ccco2)nn1)Nc1ccc(F)cc1F,-3.3,4,6,5.2,-2,0,-0.6,13%,15,-5.0
COc1ccc(CCNC(=O)CSc2ncn[nH]2)cc1,3.5,nt,nt,nt,1,-6,-0.4,0%,3,nt
Cc1cccc(C)c1NC(=O)C1=C(O)c2ccccc2N(C)S1(=O)=O,1.5,nt,nt,nt,3,0,0.2,7%,-7,nt
O=C(Nc1ccnn1C1CCN(Cc2ccccc2)CC1)c1ccccc1Cl,2.2,10,10,2.4,-5,-5,0.6,1%,8,-1.0
O=c1c2ccccc2oc2cc(C#CC3(O)CCCCC3)ccc12,-2.6,-28,-46,-4.8,10,-2,1.1,nt,17,3.3
Cn1nnnc1SCC(=O)Nc1ccc(Br)cc1Cl,4.0,nt,nt,nt,1,-4,-0.5,14%,6,nt
CCOc1cc(NC(=S)NCCOC)c(OCC)cc1NC(=O)c1ccco1,nt,4,-1,1.4,2,-3,0.2,nt,12,7.4
C#CC(=O)N(c1cc(OC)ccc1OC)C(C(=O)NC1CCCC1)c1cccs1 (stereo not given),-0.4,nt,nt,nt,-2,6,4.4,>100µM*,33,nt
CN(C)C(=S)c1ccc2ccccc2n1,4.3,nt,nt,nt,-9,-2,0.8,11%,-6,nt
CCOC(=O)CNC(=O)Nc1cc(C(C)(C)C)nn1-c1ccccc1,-1.9,nt,nt,nt,-1,0,-0.1,-3%,-2,nt
C#CCn1c(O)c(N=NC(=O)CNC(=O)/C=C/c2ccccc2)c2ccccc21,-0.7,-3,-1,4.5,-2,2,0.4,nt,12,-3.9
CCc1ccc(NC(=O)CSc2nnc(-c3n[nH]c4ccccc34)n2-c2ccccc2)cc1,1.5,nt,nt,nt,1,8,1.4,nt,-2,nt
COc1ccc(-c2nnc3ccc(SCc4ccccc4)nn23)cc1,5.4,3,2,1.9,-18,9,0.0,nt,22,4.3
c1ccc(CC[C@@H]2CC[C@@H](CCc3ccccc3)N2)cc1,nt,7,-6,4.6,nt,-1,0.3,nt,nt,2.2
O=C(CSc1nnc(COc2cccc3ccccc23)o1)N1CCN(C(=O)c2ccco2)CC1,-4.1,nt,nt,nt,4,-4,1.4,32%,1,nt
CC#CCCc1nc2ccccc2c(=O)n1N,3.1,nt,nt,nt,7,-15,-0.1,-1%,1,nt
N#Cc1ccc(OCC(=O)Nc2ccc(N3CCCC3)cc2)cc1,nt,-5,2,-1.0,nt,6,1.7,11%,nt,0.5
Cc1nc(-c2ccc(Cl)cc2)sc1C(=O)NNC(=O)C(C)C,-0.9,19,7,1.3,-3,-4,-1.1,12%,-24,0.3
CCCCn1c(N)c(N(CC(C)C)C(=O)c2ccc(Br)s2)c(=O)[nH]c1=O,-3.3,10,7,1.2,12,5,-0.2,nt,6,-1.3
Cc1ccc(S(=O)(=O)Nc2cccc(-n3cnnn3)c2)cc1C(=O)O,1.1,7,9,-4.5,-1,-9,-0.9,5%,-5,-0.5
# Later entries.
SMILES,RanGTP-Impb inh,Ecoli rRNA inh,Ecoli rRNA inh OD600,Ecoli rRNA inh RFP,Calb FLC,Beta apoptosis,Bfl-1 A1 inh,Vif TR-FRET,T cruzi inh,AF4-AF9 inh
CCN(Cc1ccccc1)C(c1ccc(Cl)cc1)c1nnnn1C(C)(C)C (stereo not given),-0.6,nt,nt,nt,0,7,0.3,0%,28,nt
COc1cc(CC(=O)OCC(=O)c2ccc(F)cc2)cc(OC)c1OC,nt,16,12,1.8,nt,4,-1.7,4%,nt,-0.4
O=C1NC2(CCCCCC2)C(=O)N1Cc1cccc(Cl)c1,-1.8,-22,-32,-18,-21,-3,-0.5,1%,8,-0.6
CCN(CC)S(=O)(=O)c1ccc2c(c1)nc(CCC(=O)OCC(=O)N1CCc3ccccc31)n2C,-1.2,nt,nt,nt,-8,-4,0.4,24%,-13,nt
Cc1ccsc1-c1nc(-c2ccccc2)c(-c2ccccc2)[nH]1,-42,nt,nt,nt,1,16,0.2,1%,6,nt
COc1ccc([C@H]2CC(=O)C=C(c3ccc(Cl)cc3C)C2)cc1,nt,-9,-17,-5.7,nt,2,-2.0,nt,nt,-1.3
CCCCCn1c(CNC(=O)COC)nc2ccccc21,-0.4,nt,nt,nt,-5,4,-0.7,?,-6,nt
COc1cccc(/C=C/C(=O)OCC(=O)NCC2CCCO2)c1 (stereo not given),3.7,nt,nt,nt,0,-6,-0.2,nt,9,nt
O=c1[nH]c2ccc(S(=O)(=O)Nc3ccc(Cl)cc3)cc2[nH]1,-13,-6,3,-1.7,4,nt,-0.1,nt,-19,-0.9
O=C(Cc1ccccc1)N/N=C/c1ccc2cccc(O)c2n1,1.7,nt,nt,nt,-13,20,0.7,9%,-10,-0.1
CC1CC1C(=O)OCC(=O)NCc1ccccc1Cl (stereo not given),-2.7,-3,4,-5.4,-3,1,-0.5,4%,1,nt
COCCCN(C(=O)Cc1ccc(Cl)c(Cl)c1)c1c(N)n(Cc2ccccc2)c(=O)[nH]c1=O,-1.8,13,10,1.4,-7,-1,-0.2,nt,-1,-4.1
O=C1c2ccccc2C(=O)N1CCC(c1ccc(F)cc1)c1ccco1 (stereo not given),-2.6,nt,nt,nt,-2,3,1.0,>100µM*,1,nt
CC1CCN(C(=O)C2CCN(c3ncnc4c3nc3n4CCCCC3)CC2)CC1,0.5,-9,-11,7.3,-4,0,1.0,nt,6,-1.5
CCOc1ccc(Oc2c(/C=N/NC(=O)COc3ccccc3OC)c(C)nn2-c2ccccc2)cc1,1.6,nt,nt,nt,25,8,-0.8,nt,32,nt
COc1ccc(NS(=O)(=O)c2ccc(N3CCOCC3)c(NC(=O)C(C)C)c2)cc1,-0.1,2,7,-0.8,1,7,0.0,nt,12,3.4
Cc1ccc(-c2cc(C(=O)Nc3cccc(S(=O)(=O)N(C)C)c3)c3ccccc3n2)o1,-1.3,8,19,2.3,-10,0,0.7,nt,9,-1.5
O=C(NC1CCCc2ccccc21)c1ccc([N+](=O)[O-])cc1 (stereo not given),1.6,-5,2,-1.9,-6,nt,1.1,-3%,-5,-0.6
CC(C(=O)Nc1ccccn1)N1C(=O)C2C3C=CC(C3)C2C1=O (stereo not given),1.0,nt,nt,nt,-3,-1,0.8,-6%,-9,nt
N#C/C(=C\c1ccc(OCc2ccccc2)cc1)C(=O)Nc1nc2c(s1)CCN(Cc1ccccc1)C2,6.7,nt,nt,nt,-1,16,?,?,0,nt
O=C(NCc1ccccc1)NC(=O)c1ccc(Cl)cc1,-0.5,9,4,-1.4,-14,-2,0.6,0%,-6,-1.4
CC(=O)NC1C(=O)N=C(SCC(=O)NC(C)c2ccccc2)NC1=O (stereo not given),4.7,9,21,0.0,2,-1,-0.8,-4%,-9,6.4
O=C(CSc1ccccc1)Nc1nnc(C2CC2)s1,1.2,7,7,-1.4,-5,-7,-0.6,2%,-8,-1.4
CC(C)NC(=S)N1CCN(Cc2ccc3c(c2)OCO3)CC1,?,17,9,2.2,-27,-5,0.1,-5%,-3,-0.1
O=C(CN1CCN(CC(=O)Nc2ccc(OCc3ccccc3)cc2)CC1)Nc1ccc(F)cc1,-1.0,-4,6,-1.7,-7,13,0.4,-4%,-53,6.3
# More structures
SMILES,RanGTP-Impb inh,Ecoli rRNA inh,Ecoli rRNA inh OD600,Ecoli rRNA inh RFP,Calb FLC,Beta apoptosis,Bfl-1 A1 inh,Vif TR-FRET,T cruzi inh,AF4-AF9 inh
Cc1cc(C)c2c(N)c(-c3nnc(SCc4ccc(Cl)cc4)n3C)sc2n1,3.8,-19,-17,0.7,-1,-2,0.9,-9%,12,-6.5
CCCOc1ccc(CCc2n[nH]c(=S)n2-c2ccccc2)cc1,?,-50,-73,-21,2,-5,0.1,-7%,-14,-5.9
COc1ccc(C2C(C(=O)N3CCOCC3)=C(C)NC3=C2C(=O)CC(C)(C)C3)cc1O (stereo not given),-10,nt,nt,nt,27,nt,-0.2,?,-15,nt
COC(=O)C1CCN(C(=O)Cc2ccccc2OC)CC1,?,11,8,0.6,3,-2,-0.6,nt,-8,-3.6
CSc1ccc(C2NC(=O)c3ccccc3N2)cc1 (stereo not given),-0.8,-2,4,-0.8,-4,7,-3.3,nt,-15,0.8
CC(C)CN(CC(C)C)C(=O)CS(=O)(=O)Cc1ccccc1,-2.7,nt,nt,nt,2,nt,0.2,3%,-1,nt
CCCCN(C)Cc1c(C)[nH]c2ccc(C)cc2c1=O,?,nt,nt,nt,-5,nt,0.1,-3%,-55,nt
COc1cc(NC(=S)N2CCOCC2)c(OC)cc1Cl,1.9,16,15,0.6,29,2,0.6,nt,9,3.0
COc1ccc(-c2oc(NC(=O)CCl)c(C#N)c2-c2ccc(OC)cc2)cc1,-5.1,nt,nt,nt,-5,1,0.6,6%,20,nt
CN(C)S(=O)(=O)Oc1ccccc1C(=O)Nc1cccc(C(F)(F)F)c1,-0.8,nt,nt,nt,13,-4,-0.3,30%,0,nt
O=S1(=O)N=C2CCCCCN2C(c2ccc(Cl)cc2)N1 (stereo not given),-2.5,1,3,-1.1,-11,-7,0.5,?,-2,-14
CCOC(=O)CSc1nnc(CNC(=O)c2ccc(S(=O)(=O)N(C)C)cc2)n1C,-0.6,8,6,-0.5,-16,-9,0.1,-7%,-2,2.0
Cc1ccc(S(=O)(=O)N2CCOCC2)cc1NC(=O)COc1ccccc1Cc1ccccc1,nt,3,1,3.3,nt,-6,-0.1,3%,nt,-2.0
COc1ccc(/C=C/C(=O)OCC(=O)Nc2ccc(C)cc2)cc1S(=O)(=O)N1CCOCC1,0.6,-5,-9,-4.5,-12,-5,-0.1,-9%,-11,2.8
Cn1c(=O)c2c(c3ccccc31)OC(C)(C)CC2,-4.6,5,-8,-6.0,-23,-6,-0.1,nt,10,-7.2
CCc1cccc(CC)c1NC(=O)c1ccc(-n2cncn2)nc1,0.6,3,14,8.0,-1,-1,0.3,-7%,1,-2.2
CCCCn1c(SCc2nc3ccccc3s2)nc2ccccc2c1=O,2.8,nt,nt,nt,?,8,0.3,nt,14,nt
Cc1sc2ncnc(N3CCC(C(=O)Oc4cccc(Cl)c4Cl)CC3)c2c1C,4.5,-1,0,1.4,0,-18,-0.5,-9%,-11,-1.0
CCCNC(=O)NC1C(NC(=O)NCCC)N(C)C(=O)N1C (stereo not given),2.0,nt,nt,nt,-5,3,0.5,6%,-5,nt
